EPAC2 ant val: Validation qHTS for antagonist of cAMP-regulated guanine nucleotide exchange factor 4 (EPAC2); Rap guanine nucleotide exchange factor 4 (Homo sapiens), Q8WZA2; EPAC2 Rap1B BODIPY-GDP exchange, fluorescence; Potency, µM (titrated, usually from 112 µM), without a hit: at the highest dose activity, negative = inhibition, most hits filed as inhibitors; 16,000 compounds, 1.7% hits; AID 1645886, 2021; active means well fitted inhibition curve with a large enough effect; inconclusive means small, poorly fitted or top-dose-only effect; inactive means no such curve, though single readings can be large or run the other way;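 further: 100% = activation by cAMP agonist control; nearly all actives have a fitted effect of over 40% in size; the record reuses the description of the EPAC1 agonist screen; inactives centre near -10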
Target sequence (Q8WZA2 whole entry, looked up): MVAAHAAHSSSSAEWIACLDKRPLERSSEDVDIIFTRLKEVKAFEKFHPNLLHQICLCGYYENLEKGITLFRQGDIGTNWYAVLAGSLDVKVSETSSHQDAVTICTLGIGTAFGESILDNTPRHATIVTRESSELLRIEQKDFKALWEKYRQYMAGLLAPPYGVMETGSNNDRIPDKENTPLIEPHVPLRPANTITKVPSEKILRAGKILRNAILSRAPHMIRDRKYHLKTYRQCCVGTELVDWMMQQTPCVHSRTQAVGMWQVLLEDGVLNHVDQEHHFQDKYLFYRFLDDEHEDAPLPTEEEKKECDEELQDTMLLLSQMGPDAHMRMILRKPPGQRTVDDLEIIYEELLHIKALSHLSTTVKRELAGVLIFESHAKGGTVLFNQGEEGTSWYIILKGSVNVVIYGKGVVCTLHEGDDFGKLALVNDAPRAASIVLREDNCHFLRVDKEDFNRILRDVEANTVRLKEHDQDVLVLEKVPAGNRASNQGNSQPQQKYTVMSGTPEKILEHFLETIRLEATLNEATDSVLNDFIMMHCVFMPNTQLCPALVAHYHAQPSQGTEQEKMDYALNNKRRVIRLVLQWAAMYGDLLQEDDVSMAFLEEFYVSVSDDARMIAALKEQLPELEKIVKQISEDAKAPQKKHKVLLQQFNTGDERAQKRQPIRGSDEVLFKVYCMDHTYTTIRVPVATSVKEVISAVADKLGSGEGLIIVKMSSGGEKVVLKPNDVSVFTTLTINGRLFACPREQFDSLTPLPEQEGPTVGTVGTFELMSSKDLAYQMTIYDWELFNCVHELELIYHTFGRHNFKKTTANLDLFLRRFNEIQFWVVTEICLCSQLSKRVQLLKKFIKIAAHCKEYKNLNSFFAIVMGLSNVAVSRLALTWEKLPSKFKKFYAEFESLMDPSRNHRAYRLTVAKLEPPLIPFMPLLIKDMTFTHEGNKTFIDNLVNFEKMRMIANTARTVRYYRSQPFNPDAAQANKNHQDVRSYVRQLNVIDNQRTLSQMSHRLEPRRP
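Fluorescent exchange read-out: 100 nM EPAC2 with 250 nM RAP1B–BODIPY-GDP and 50 uM GDP; BODIPY-GDP release lowers fluorescence. Read at 480/540 nm every 5 min for 30 min at room temperature; normalized to 6.5 mM cAMP.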
Active calls of the source: *; ? = inconclusive; & = joins results of further samples; ! = a repeat was not active; [ ] = another dose, or the depositor's remark. Potency means the concentration at half of the fitted maximal effect. The list is partial; the hit share may differ from the screen's.

1: CC(C)CN1CC[C@@]2(CCCN(C(=O)c3ccncc3)C2)C1
  EPAC2 ant val: -23%
2: CCCCCCCCCOc1ccc2[nH]cc(CCN)c2c1
  EPAC2 ant val: ?
3: O=C(NC(O)C(Cl)(Cl)Cl)NC(O)C(Cl)(Cl)Cl (stereo not given)
  EPAC2 ant val: -4%
4: CCC(C)C(=O)OC1C(O)C2C(CN3CC(C)CCC3[C@]2(C)O)C2C[C@]34O[C@@]5(O)C(OC(=O)C(C)(O)CC)CCC3(C)C5C(OC(C)=O)C(OC(C)=O)C4[C@@]21O (stereo not given in full)
  EPAC2 ant val: -5%
5: CN1CCC2(CC1)CCN(C(=O)Oc1ccccc1)CC2
  EPAC2 ant val: -34%
6: COc1c(CC=C(C)C)c2c(c3oc(=O)c(-c4ccc(O)cc4)c(O)c13)C=CC(C)(C)O2
  EPAC2 ant val: -25%
7: COc1ccc2[nH]c3c(c2c1)CCNC3
  EPAC2 ant val: -36%
8: CC(C)NC(=O)N1CCCC2(CCN(C(=O)Oc3ccccc3)CC2)C1
  EPAC2 ant val: -27%
9: O=C1Nc2cc(Cl)c(Cl)cc2N2CCNC[C@H]12
  EPAC2 ant val: -22%
10: c1cncc(C2=NCCC2)c1
  EPAC2 ant val: -5%
11: COc1cc(C(O)CN)ccc1O (stereo not given)
  EPAC2 ant val: -4%
12: CN(C(=O)Cc1ccc(Cl)c(Cl)c1)[C@H](CN1CCCC1)c1cccc(N=C=S)c1
  EPAC2 ant val: -19%
13: CCN(CC)CCc1c[nH]c2ccccc12
  EPAC2 ant val: 19%[239 µM]
14: CN1CC[C@@H]2CN3CCc4cccc(c43)[C@@H]2C1
  EPAC2 ant val: -10%
15: c1ccc(CN2CCCC3(CCNCC3)C2)cc1
  EPAC2 ant val: -24%
16: C[N+](C)(C)CC(=O)[O-]
  EPAC2 ant val: 21%
17: O=C(O)C(Cl)(Cl)Cl
  EPAC2 ant val: -12%
18: N[C@@H](Cn1ccc(=O)n(Cc2ccc(C(=O)O)cc2)c1=O)C(=O)O
  EPAC2 ant val: -10%
19: CC(=O)NCCc1c[nH]c2ccccc12
  EPAC2 ant val: ?
20: O=C1NC(=O)C(=O)C(=O)N1
  EPAC2 ant val: ?
21: N#CC(C#N)=Cc1cc(O)c(O)c(O)c1
  EPAC2 ant val: 89µM*!
22: F/C(COc1ccc2c(c1)[nH]c1ccccc12)=C1/CN2CCC1CC2
  EPAC2 ant val: 17%
23: C[N+]1(C)CCN(c2ccccc2)CC1
  EPAC2 ant val: -21%&-13%
24: N#Cc1ccc(CN2CCCC3(CCN(C(=O)Oc4ccccc4)CC3)C2)cc1
  EPAC2 ant val: -24%
25: COC1(CS(=O)c2ccccc2)CCN(CCc2c[nH]c3ccc(F)cc23)CC1 (stereo not given)
  EPAC2 ant val: -15%

Grouped by structure, the compounds so far with a Cl atom
3: O=C(NC(O)C(Cl)(Cl)Cl)NC(O)C(Cl)(Cl)Cl (stereo not given)
  EPAC2 ant val: -4%
9: O=C1Nc2cc(Cl)c(Cl)cc2N2CCNC[C@H]12
  EPAC2 ant val: -22%
12: CN(C(=O)Cc1ccc(Cl)c(Cl)c1)[C@H](CN1CCCC1)c1cccc(N=C=S)c1
  EPAC2 ant val: -19%
17: O=C(O)C(Cl)(Cl)Cl
  EPAC2 ant val: -12%

Some values from the entries so far:
Reading for entry 14 in EPAC2 ant val: -10%
Reading for entry 9 in EPAC2 ant val: -22%

Continued:
26: C=C(C)[C@H]1CN[C@H](C(=O)O)[C@H]1CC(=O)O
  EPAC2 ant val: ?
27: COc1ccc2c3c1O[C@H]1[C@@H](O)C=C[C@H]4[C@@H](C2)NCC[C@@]341
  EPAC2 ant val: 9%[239 µM]
28: COc1ccc(CCN)cc1
  EPAC2 ant val: -9%
29: CN1C2CCC1CC(OC(c1ccccc1)c1ccc(Cl)cc1)C2 (stereo not given)
  EPAC2 ant val: 2%
30: O=c1ccc2c(O)c3ccoc3cc2o1
  EPAC2 ant val: -9%
31: COc1cc2c(cc1OC)C(C)NCC2 (stereo not given)
  EPAC2 ant val: -12%&-7%
32: CN(C(=O)Cc1ccc(Cl)c(Cl)c1)C(CN1CCCC1)c1cccc(OCC(=O)O)c1 (stereo not given)
  EPAC2 ant val: 0%&-12%
33: CC1=C(O)C(=O)[C@H]2O[C@@H]2C1=O
  EPAC2 ant val: 6%
34: CC(C)[C@@]1(NC(=O)[C@H]2CC3c4cccc5[nH]cc(c45)C[C@H]3N(C)C2)O[C@@]2(O)C3CCCN3C(=O)[C@@H](Cc3ccccc3)N2C1=O (stereo not given in full)
  EPAC2 ant val: ?
35: O=C(c1csnn1)N1CCC2(CC1)CN(Cc1ccncc1)C2
  EPAC2 ant val: -26%
36: Oc1cccc[c]1[Hg][Cl]
  EPAC2 ant val: -19%
37: CCCCCCCCCC[N+](C)(C)CCCCCCCCCC
  EPAC2 ant val: -29%
38: O=[N+]([O-])c1cc([As](=O)(O)O)ccc1O
  EPAC2 ant val: -10%[56.6 µM]
39: CNC(C)Cc1ccccc1 (stereo not given)
  EPAC2 ant val: 3%[239 µM]
40: CN1C2CCC1CC(OC(=O)C1CCC(C(=O)OC3CC4CCC(C3)N4C)(c3ccccc3)c3ccccc31)C2 (stereo not given)
  EPAC2 ant val: ?
41: CCCCC/C=C\C/C=C\C/C=C\C/C=C\CCCC(=O)Nc1ccc(O)cc1
  EPAC2 ant val: 32µM*
42: CC(=O)OCC1=C(C(=O)O)N2C(=O)C(NC(=O)CCCC(N)C(=O)O)C2SC1 (stereo not given)
  EPAC2 ant val: -5%
43: CN(C)C1C(=O)C(C(N)=O)=C(O)[C@@]2(O)C(=O)C3=C(O)c4c(O)ccc(Cl)c4[C@](C)(O)C3CC12 (stereo not given in full)
  EPAC2 ant val: ?
44: CC1=C2C3OC(=O)C(C)C3CC[C@@]2(C)C=CC1=O (stereo not given in full)
  EPAC2 ant val: -3%
45: CC(Cc1ccc2c(c1)OCO2)NO (stereo not given)
  EPAC2 ant val: 5%[239 µM]
46: CN(C)[C@@H]1C(=O)C(C(N)=O)=C(O)[C@@]2(O)C(=O)C3=C(O)c4c(O)ccc(Cl)c4[C@@](C)(O)[C@H]3C[C@@H]12
  EPAC2 ant val: 3%[56.6 µM]
47: O=C1C(Cl)=C(Cl)C(=O)C(Cl)=C1Cl
  EPAC2 ant val: ?
48: CNC(C)[C@H](O)c1ccccc1 (stereo not given in full)
  EPAC2 ant val: -16%
49: COC(=O)N1CCC2(CCN(CC(C)C)CC2)CC1
  EPAC2 ant val: -27%
50: CN1CCC2=C[C@@H](O)[C@@H]3OC(=O)c4cc5c(cc4C3C21)OCO5 (stereo not given in full)
  EPAC2 ant val: 4%

From entry 31 up to 36, copied from above:
31: COc1cc2c(cc1OC)C(C)NCC2 (stereo not given)
  EPAC2 ant val: -12%&-7%
32: CN(C(=O)Cc1ccc(Cl)c(Cl)c1)C(CN1CCCC1)c1cccc(OCC(=O)O)c1 (stereo not given)
  EPAC2 ant val: 0%&-12%
33: CC1=C(O)C(=O)[C@H]2O[C@@H]2C1=O
  EPAC2 ant val: 6%
34: CC(C)[C@@]1(NC(=O)[C@H]2CC3c4cccc5[nH]cc(c45)C[C@H]3N(C)C2)O[C@@]2(O)C3CCCN3C(=O)[C@@H](Cc3ccccc3)N2C1=O (stereo not given in full)
  EPAC2 ant val: ?
35: O=C(c1csnn1)N1CCC2(CC1)CN(Cc1ccncc1)C2
  EPAC2 ant val: -26%
36: Oc1cccc[c]1[Hg][Cl]
  EPAC2 ant val: -19%

Following part.
51: CCC(=O)C(CC(C)N(C)C)(c1ccccc1)c1ccccc1 (stereo not given)
  EPAC2 ant val: 12%[239 µM]
52: N#CN
  EPAC2 ant val: -16%
53: Cc1ccc(Cl)c(O)c1
  EPAC2 ant val: -20%
54: CCN(C(C)=O)c1cccc(-c2ccnc3c(C#N)cnn23)c1
  EPAC2 ant val: 3%
55: CN1CCc2cccc(Cl)c2CC1
  EPAC2 ant val: -19%
56: COC1=CC23CCCN2CCc2cc4c(cc2C3C1O)OCO4 (stereo not given)
  EPAC2 ant val: -11%
57: O=C(O)CCCO
  EPAC2 ant val: -1%[239 µM]
58: COc1ccc(/C=C/C(=O)N2CC3C[C@@H](C2)Cn2c3cccc2=O)cc1OC
  EPAC2 ant val: 13%
59: O=C(O)c1ccc2[nH]cc(CCCCN3CC=C(c4ccccc4)CC3)c2c1
  EPAC2 ant val: -3%
60: O=C1C=C2C=C[C@@H]3C[C@@]2(O1)[C@H]1CCCCN31
  EPAC2 ant val: -20%&-11%
61: c1ccc(CN2CC[C@@]3(CCCNC3)C2)cc1
  EPAC2 ant val: -12%
62: COc1ccc2[nH]cc(CCN(C(C)C)C(C)C)c2c1
  EPAC2 ant val: 8%[239 µM]
63: CC[C@H](C)[C@H](NC(=O)[C@H](CCCN=C(N)N)NC(=O)[C@H](CCCN=C(N)N)NC(=O)[C@H](CC(C)C)NC(=O)[C@H](Cc1ccccc1)NC(=O)CNC(=O)CNC(=O)[C@@H](N)Cc1ccc(O)cc1)C(=O)O
  EPAC2 ant val: 10%[11.4 µM]
64: C[C@@]12CCC3C(CC[C@@H]4CC(O)CC[C@@]34C)C1CCC2O (stereo not given in full)
  EPAC2 ant val: 1%
65: O=C1NCN(c2ccccc2)C12CCN(CC1COc3ccccc3O1)CC2 (stereo not given)
  EPAC2 ant val: ?
66: CC(C)[C@H]1C(=O)N2CCC[C@H]2[C@]2(O)O[C@](NC(=O)[C@@H]3C[C@@H]4c5cccc6[nH]cc(c56)C[C@H]4N(C)C3)(C(C)C)C(=O)N12
  EPAC2 ant val: 5%
67: CC1(C)C(=O)[C@@H]2OC2[C@@]2(C)C1CC(O)[C@]1(C)C2CC[C@@]2(C)C(c3ccoc3)OC(=O)C3OC312 (stereo not given in full)
  EPAC2 ant val: -19%
68: COc1c2c(cc3c1OCO3)CCN(C)C2
  EPAC2 ant val: -2%[56.6 µM]
69: COC(=O)[C@H]1[C@@H](OC(=O)c2ccccc2)C[C@@H]2CC[C@H]1N2C
  EPAC2 ant val: -6%[239 µM]
70: CCCOc1ccc2[nH]cc(C3=CCNCC3)c2n1
  EPAC2 ant val: -18%
71: CSCC[C@H](NC(=O)[C@H](Cc1ccccc1)NC(=O)CNC(=O)CNC(=O)[C@@H](N)Cc1ccc(O)cc1)C(=O)O
  EPAC2 ant val: -5%[11.4 µM]
72: NCC(=O)c1ccccc1
  EPAC2 ant val: -7%
